Bioassay records (PubChem)
INS promoter inh: inhibitors of insulin promoter-driven GFP, primary screen, imaging, TRM-6 cells (human fetal islet line), eGFP reporter, cell count; 130,000 tested, 0.9% active; inhibition, % at 2 µM; reporter expression induced with tamoxifen;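 active = inhibition above the mean plus 3 SD, with well images judged a real hit on visual review, cut at about 60% in these data, passing the limit was not always enough; inconclusive = inhibition over the cutoff but images rejected on review; inactive = inhibition not above the cutoff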
RGS16-Gao HTS: modulators of RGS16 binding to Galphao, primary screen, biochemical, human proteins, multiplexed bead flow cytometry; bead-based flow cytometry RGS16-Galphao binding, fluorescence; actives lie on both sides; binding response (% of control), % at 10 µM; 220,000 tested, 0.38% active;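 active = below 25% or above 175%, edge rows of some plates excepted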;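 note: Galphao activated by GDP with aluminum fluoride before binding; 100% = wells without compound and 0% = beads without RGS; some results beyond the cut were filed as inactive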
Target sequence (O15492 whole entry, looked up): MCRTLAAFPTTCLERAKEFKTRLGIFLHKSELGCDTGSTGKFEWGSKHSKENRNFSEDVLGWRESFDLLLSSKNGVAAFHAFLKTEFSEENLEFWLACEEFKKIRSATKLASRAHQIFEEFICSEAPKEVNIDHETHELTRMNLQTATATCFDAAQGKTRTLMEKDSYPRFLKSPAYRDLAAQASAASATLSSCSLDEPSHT
Target sequence (P09471 whole entry, looked up): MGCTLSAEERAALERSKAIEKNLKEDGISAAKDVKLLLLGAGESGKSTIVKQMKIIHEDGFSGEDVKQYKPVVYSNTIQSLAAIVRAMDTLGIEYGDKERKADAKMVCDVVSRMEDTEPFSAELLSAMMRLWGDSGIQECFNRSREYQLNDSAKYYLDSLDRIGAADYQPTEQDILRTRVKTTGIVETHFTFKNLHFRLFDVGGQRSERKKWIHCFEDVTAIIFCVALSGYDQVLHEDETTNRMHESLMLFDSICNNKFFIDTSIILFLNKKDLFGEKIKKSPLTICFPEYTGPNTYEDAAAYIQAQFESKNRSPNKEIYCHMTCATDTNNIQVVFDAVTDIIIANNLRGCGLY
HSV replic up: enhancers of HSV replication in host cells, fold increase, host cell viability; HSV replication augmentation in cells; 220,000 tested, 0.005% active; maximum fold increase;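 active = peak rise of 1.5-fold or more in the series; inconclusive = self-fluorescent or not available for retest; tested in PC3 cells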;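 note: first round at 10 µM; read as green reporter fluorescence; hits show the peak of a series up to 25 µM; 1 = signal of infected wells without compound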
GALR2 agonist: GALR2 receptor agonists, primary screen, cell-based | GALR2-expressing cells, agonist activation read-out | AID 803, 2007 | Galanin receptor type 2 (Homo sapiens), O43603 | activation, %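 (tested at 5 µM)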 | 140,000 tested, 0.48% active;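 active = above mean plus 3 SD of all compounds, about 5% in these data, not always enough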;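 note: 0% = vehicle buffer wells and 100% = reference agonist at full effect; tested in CHO reporter cells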
Target sequence (O43603 whole entry, looked up): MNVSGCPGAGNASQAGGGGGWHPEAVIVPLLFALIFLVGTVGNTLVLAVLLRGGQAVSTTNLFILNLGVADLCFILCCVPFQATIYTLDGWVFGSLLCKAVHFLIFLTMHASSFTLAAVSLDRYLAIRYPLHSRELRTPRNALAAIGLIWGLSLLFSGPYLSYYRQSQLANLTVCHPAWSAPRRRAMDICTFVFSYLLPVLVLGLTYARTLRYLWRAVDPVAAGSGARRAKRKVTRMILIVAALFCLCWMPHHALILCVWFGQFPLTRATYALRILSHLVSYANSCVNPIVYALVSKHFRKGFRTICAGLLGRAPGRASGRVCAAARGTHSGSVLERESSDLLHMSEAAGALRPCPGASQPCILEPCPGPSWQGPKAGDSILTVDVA
PKD1 inh: inhibitors of human PKD1 kinase, biochemical, fluorescence polarization. inhibition, %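 (about 10 µM by stock and volumes)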. AID 797, 2007. Serine/threonine-protein kinase D1 (Homo sapiens), Q15139. PKD1 kinase fluorescence polarization assay. 200,000 tested, 0.056% active;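 active = inhibition of 50% or more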;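 note: controls were vehicle for no effect and a reference inhibitor for full effect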
INS promoter inh cell count: second read-out of INS promoter inh, no call of its own (marks repeat the call); normalized cell count, %; measured here: cell count, toxicity; reference of the scale not given here;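 cells exposed to compound for 48 h; stained nuclei by imaging scaled within each plate; lower means fewer cells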
HSV replic up primary fold: further read-out of HSV replic up, marked with its call; fold increase; compound at 10 µM; measured here: primary screen fold increase 10 uM; tested in PC3 cells;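 GFP signal in the first replicate; 1 = infected wells without compound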
Numbers without * were called inactive; i = inactive; ? = inconclusive; nt = not tested or not shown; & = joins results of further samples. Compounds as they come (roughly 1.1% active in at least one column).

compound | HSV replic up | GALR2 agonist | PKD1 inh | INS promoter inh cell count | INS promoter inh | RGS16-Gao HTS | HSV replic up primary fold
CC(C)N(Cc1ccccc1)C(=O)Cn1c(=O)cnc2ccccc21 | i | nt | nt | nt | nt | 95 | 0.94
CC(C)C(=O)NC(NCC1CCCO1)C(Cl)(Cl)Cl (stereo unspecified) | i | -4.2 | -1 | nt | nt | 111 | 0.91
CN(C1CCCCC1)S(=O)(=O)c1ccc(Cl)c(C(=O)O)c1 | i | -2.0 | -7 | nt | nt | 93 | 0.95
CCNc1nc(SCCOc2ccc(Br)cc2)nc(N(C)C)n1 | i | nt | -6 | nt | nt | 92 | 0.95
COC(=O)CCc1sc(NC2CCCCC2)nc1-c1ccc(OC)cc1 | i | -0.1 | 9 | nt | nt | 104 | 0.99
CC(C)(C)n1ncc2c(=O)n(CC(=O)NC3CCCCC3)cnc21 | i | -1.8 | -8 | nt | nt | 99 | 0.99
COc1ccc(/C=C/C(=O)Nc2cccc(F)c2)cc1S(=O)(=O)N1CCOCC1 | i | nt | -3 | 77 | -50 | 86 | 0.86
CCOC(=O)c1c(C)nn(-c2ccc(NC(=O)/C=C/C(=O)O)cc2)c1C | i | nt | nt | nt | nt | 102 | 0.43
COC(=O)c1cc(-c2cccs2)nn1-c1ccccc1 | i | nt | 6 | nt | nt | 103 | 0.99
N=C1C(c2ccccc2)=C(O)CN1c1cccc(O)c1 | i | nt | -4 | nt | nt | 98 | 1.1
COc1ccc(C2(CNC(=O)c3ccco3)CCOCC2)cc1 | i | -2.1 | 5 | 71 | -38 | 103 | 1
CC(=O)c1sc2ccccc2c1OC(=O)c1ccco1 | nt | -1.4 | -7 | 84 | 0 | 102 | nt
Nc1cc(C(=O)O)ccc1Sc1ccccc1C(=O)O | i | nt | 0 | nt | nt | 96 | 1.3
Cc1ccc2ccccc2c1NC(=O)Cn1nnc(-c2cccnc2)n1 | i | nt | -3 | 123 | 42 | 55 | 1
Cc1cc(NC(=O)CCCS(=O)(=O)c2nc(-c3cccs3)cc(C(F)(F)F)n2)no1 | i | -0.5 | -5 | 74 | 0 | 97 | 0.71
O=C(COC(=O)c1cccnc1Cl)Nc1ccccc1OC(F)F | i | nt | -5 | nt | nt | 98 | 1.1
S=C(NCc1ccc(Cl)cc1)N1CCN(c2ccccn2)CC1 | i | nt | 6 | nt | nt | 100 | 1
CCOC(=O)C1CCN(S(=O)(=O)c2cn(C)c(=O)n(C)c2=O)CC1 | i | -0.9 | -11 | 158 | 14 | 107 | 0.91
CSc1ncc(Cl)c(C(=O)Nc2cccc(C)c2)n1 | i | -1.5 | -5 | nt | nt | 107 | 0.91
Cc1ccc(S(=O)(=O)NC2=NCCCCC2)cc1 | i | -1.0 | -2 | nt | nt | 115 | 0.94
COc1ccc(OC(=O)CCCN2C(=O)c3ccccc3C2=O)cc1 | i | -0.5 | -2 | 131 | -6 | 100 | 0.92
COc1cc(CNC(C)(C)CO)cc(Br)c1OCc1ccccc1 | i | nt | -1 | nt | nt | 103 | 0.92
Cc1onc(-c2ccccc2)c1C(=O)OCC(=O)Nc1ccc2c(c1)OCO2 | i | -2.5 | 0 | 114 | -3 | 109 | 0.67
CN(CCOC(=O)/C=C/c1ccccc1)C(C)(C)C | i | -1.0 | -8 | 127 | -16 | 107 | 0.98
O=C(COc1ccc(Cl)cc1Cl)NCCCN1CCOCC1 | i | -0.2 | -11 | 160 | -9 | 101 | 0.75
C=CCOc1nc2c(c(=O)n(C)c(=O)n2C)n1Cc1ccccc1 | i | nt | nt | nt | nt | 104 | 0.91
CN(C)/C=C(\C=O)c1ncc(C(F)(F)F)cc1Cl | ? | nt | -7 | 82 | 7 | 108 | nt
CCN(CC)CCOCCOc1cc(C)c(Cl)c(C)c1 | i | -2.9 | 2 | 76 | -39 | 107 | 0.84
CC1Cn2c(nnc2-c2cccc(N)c2)S1 (stereo unspecified) | i | -0.7 | -5 | 162 | 43 | 98 | 0.93
O=c1c2ccccc2nc2n1CCC2O (stereo unspecified) | i | nt | 7 | nt | nt | 103 | 1.1

Part of the list above with just HSV replic up primary fold:
| mol | HSV replic up primary fold |
| --- | --- |
| CSc1ncc(Cl)c(C(=O)Nc2cccc(C)c2)n1 | 0.91 |
| Cc1ccc(S(=O)(=O)NC2=NCCCCC2)cc1 | 0.94 |
| COc1ccc(OC(=O)CCCN2C(=O)c3ccccc3C2=O)cc1 | 0.92 |
| COc1cc(CNC(C)(C)CO)cc(Br)c1OCc1ccccc1 | 0.92 |
| Cc1onc(-c2ccccc2)c1C(=O)OCC(=O)Nc1ccc2c(c1)OCO2 | 0.67 |

Next part.
compound | HSV replic up | GALR2 agonist | PKD1 inh | INS promoter inh cell count | INS promoter inh | RGS16-Gao HTS | HSV replic up primary fold
CCC1Oc2ccc(C)cc2N(CC(=O)NCc2cccc(OC)c2)C1=O (stereo unspecified) | i | -0.7 | 1 | 66 | -19 | 103 | 0.67
Cc1nc(C)c(CCNC(=O)c2cccc(Cl)c2)s1 | i | -1.0 | -3 | 115 | 42 | 98 | 0.86
COCCCn1cn[nH]c1=S | i | nt | 5 | 70 | 20 | 102 | 1.1
CCOC(=O)C(CC)n1cnc2sc3c(c2c1=O)CCC3 (stereo unspecified) | i | -2.4 | -3 | 104 | -33 | 94 | 0.98
Cc1ccc(CN2C(=O)/C(=C\c3ccc(C(=O)NCc4cccnc4)cc3)Oc3ccccc32)cc1 | i | 0.5 | 3 | 47 | 30 | 105 | 0.94
O=C(Nc1cccc2nsnc12)c1cccs1 | i | -1.2&-0.5 | -4&-2 | 106&97 | 0&0 | 102&100 | 0.79&0.99
COc1ccc2nc(NC(=O)C3CCN(S(=O)(=O)c4cccnc4)CC3)sc2c1 | i | -0.9 | -20 | nt | nt | 103 | 0.94
O=C1NC[C@H](c2ccccc2)N(CC2CCCCC2)C1=O | i | nt | nt | nt | nt | 117 | 0.94
O=C(CSc1nnc(-c2ccc(Cl)cc2)n1CC1CCCO1)NC1CCS(=O)(=O)C1 (stereo unspecified) | i | nt | -3 | 117 | -45 | 93 | 1
COc1cccc(-n2c(SCC(=O)N3c4ccccc4CC3C)nnc2-c2ccco2)c1 (stereo unspecified) | i | -1.7 | -3 | 141 | -5 | 99 | 1
CCOc1cc(/C=C2/SC(=S)N(CC(=O)O)C2=O)ccc1OC(=O)c1cccs1 | ? | nt | nt | nt | nt | 102 | nt
CC1CC(C)CN(c2ccc([N+](=O)[O-])cc2-c2nn[nH]n2)C1 (stereo unspecified) | i | 0.8 | -2 | 126 | 24 | 102 | 0.98
CC(C)c1ccc(N2C(=O)CC(NNC(=O)c3cccnc3)C2=O)cc1 (stereo unspecified) | i | nt | nt | nt | nt | 95 | 1.1
COc1ccc(NC(=O)Nc2ccc(Br)cn2)cc1 | i | nt | -2 | nt | nt | 102 | 0.84
CC(=O)Oc1ccc2ccccc2c1C(NC(=O)C(C)C)c1cccc([N+](=O)[O-])c1 (stereo unspecified) | i | -1.9 | 0 | 122 | -15 | 108 | 0.96
O=C1CN(C(=O)c2cc3ccccc3oc2=O)C(c2ccc(F)cc2)c2cc(F)ccc2N1 (stereo unspecified) | nt | -1.3 | -8 | 113 | -5 | nt | nt
C=CCn1c(SCC(=O)NCC2CCCO2)nnc1C1CCCCC1 (stereo unspecified) | i | 0.1 | -10 | 105 | 35 | 102 | 1
CC(=O)Nc1ccc(OC(=O)COc2ccc(Br)cc2)cc1 | i | -1.2 | -1 | 143 | 0 | 97 | 0.89
Cn1nc(C(=O)N2CCOCC2)c([N+](=O)[O-])c1C(=O)N1CCOCC1 | i | -0.1 | 1 | nt | nt | 98 | 1.1
O=C(COc1nncc2ccccc12)NCCC1=CCCCC1 | i | -0.4 | 6 | nt | nt | 101 | 0.96
COc1ccc(Cn2cc3c(-c4ccc(F)cc4)nnc-3c3cc(OC)c(OC)cc32)cc1 | i | 6.9 | -10 | nt | nt | 108 | 0.96
COC(=O)/C=C/c1cnc2ccccc2c1 | i | nt | 3 | 58 | -27 | 101 | 0.9
Cc1ccc(C(c2sc3ncnn3c2O)N2CCC(C)CC2)cc1 (stereo unspecified) | i | -1.0 | -7 | 100 | -86 | 76 | 0.85
CCC(=O)Nc1nc2c(OC)ccc(C)c2s1 | i | -2.1 | -8 | 160 | -20 | 100 | 0.72
COC(=O)c1cn(NC(=O)c2ccc(OC)c(OC)c2)c(=O)c2ccccc12 | i | 0.4 | -1 | 28 | -7 | 98 | 0.84
CCC(C)(C)C1CCc2c(sc(NC(=O)c3cccs3)c2C(N)=O)C1 (stereo unspecified) | nt | -0.6 | -4 | 129 | 57 | 93 | nt
CCOn1c(=O)c(=O)n(OCc2ccccc2)c2ccccc21 | i | 0.1 | -11 | 142 | 34 | 110 | 0.89
COC(=O)c1ccc(CSc2nc(C)nc3sc(C)c(C)c23)o1 | i | -0.3 | -5 | nt | nt | 101 | 0.99
CC1=C(C(=O)OC(C)C)C(c2cccs2)N2C(=O)CCSC2=N1 (stereo unspecified) | i | -2.4 | -9 | 76 | -369 | 107 | 0.98
Cn1c(O)c(N=NC(=O)Cn2ccc(C(F)(F)F)n2)c2ccccc21 | i | -1.9 | -8 | 147 | -3 | 100 | 0.96

Filtered by structure: those above containing an aryl thioether with sulfur outside any ring
compound | HSV replic up | GALR2 agonist | PKD1 inh | INS promoter inh cell count | INS promoter inh | RGS16-Gao HTS | HSV replic up primary fold
CCNc1nc(SCCOc2ccc(Br)cc2)nc(N(C)C)n1 | i | nt | -6 | nt | nt | 92 | 0.95
Nc1cc(C(=O)O)ccc1Sc1ccccc1C(=O)O | i | nt | 0 | nt | nt | 96 | 1.3
CSc1ncc(Cl)c(C(=O)Nc2cccc(C)c2)n1 | i | -1.5 | -5 | nt | nt | 107 | 0.91
O=C(CSc1nnc(-c2ccc(Cl)cc2)n1CC1CCCO1)NC1CCS(=O)(=O)C1 (stereo unspecified) | i | nt | -3 | 117 | -45 | 93 | 1
COc1cccc(-n2c(SCC(=O)N3c4ccccc4CC3C)nnc2-c2ccco2)c1 (stereo unspecified) | i | -1.7 | -3 | 141 | -5 | 99 | 1
C=CCn1c(SCC(=O)NCC2CCCO2)nnc1C1CCCCC1 (stereo unspecified) | i | 0.1 | -10 | 105 | 35 | 102 | 1
COC(=O)c1ccc(CSc2nc(C)nc3sc(C)c(C)c23)o1 | i | -0.3 | -5 | nt | nt | 101 | 0.99

Next section.
compound | HSV replic up | GALR2 agonist | PKD1 inh | INS promoter inh cell count | INS promoter inh | RGS16-Gao HTS | HSV replic up primary fold
Cc1ccnc(Nc2nc(-c3c(C)nc4sccn34)cs2)c1 | i | 1.3 | 0 | 112 | 44 | 96 | 0.94
CC(=O)c1cccc(NC(=O)CC2S/C(=N/N=C/c3cccs3)NC2=O)c1 (stereo unspecified) | i | nt | -3 | nt | nt | 105 | 0.96
CC[n+]1c(/C=C2/C=C(C)CC(C)C2)sc2ccccc21 (stereo unspecified) | i | nt | -5 | 123 | 21 | 91 | 1
Cc1cc(C(=O)CN2C(=O)NC3(CCCCC3)C2=O)c(C)n1Cc1ccc2c(c1)OCO2 | i | -0.7 | 3 | nt | nt | 100 | 1.1
COC(=O)C(Cc1c[nH]c2ccccc12)NC(C)=O (stereo unspecified) | i | -0.7 | -2 | 78 | 40 | 107 | 0.99
COc1ccc(OCC(O)CN2C(=O)NC(C)(C)C2=O)cc1 (stereo unspecified) | i | -2.3 | -8 | nt | nt | 101 | 1
CCCOc1cccc(C(=O)Nc2cccc(NC(=O)c3ccco3)c2)c1 | nt | -0.6 | 4 | nt | nt | 95 | nt
Cn1c(=O)c2c(nc(N/N=C/c3cccnc3)n2Cc2ccccc2)n(C)c1=O | i | nt | nt | nt | nt | 92 | 0.99
O=C(CSc1nc2ccccc2s1)Nc1nccs1 | i | -3.3 | 0 | 128 | 3 | 99 | 0.96
O=C(c1ccncc1)N1N=C(C2CC2)CC1(O)C(F)(F)F (stereo unspecified) | i | nt | 10 | nt | nt | 99 | 0.98
Cn1c(N)c(C(=O)CSc2nc3ccccc3c(=O)n2Cc2ccccc2)c(=O)n(C)c1=O | i | nt | nt | nt | nt | 139 | 0.66
Cc1ccc(OCC(=O)Nc2ccc(N3CCCC3)cc2)cc1C | i | -3.1 | -3 | 112 | -163 | 24 | 0.93
